Screens as filed in PubChem BioAssay.
Sa ugtP lethal = growth inhibition of S. aureus ugtP deletion strain. growth inhibition, % (no concentration beside the values). 0.54% of 330,000 active. AID 1259309. S. aureus RN4220 ugtP deletion, OD600 growth, 16 h; some inactives read as strong as hits;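 active = z-score under -3 and OD600 up to 0.15 on both plates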;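 note: plate controls were untreated wells for no effect and antibiotic for full effect; wells of about 80 µL received 100 nL stock; the first replicate is given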
PrP UTR inh = inhibition of PrP 5' UTR reporter expression; inhibition, % (no concentration beside the values); cell-based PrP 5' UTR mRNA reporter, plate reader; 0.35% of 340,000 active;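 active = every replicate at 50% or more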;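 note: 0 = median of the neutral control wells; tested in H4 reporter cells; numbers are from one replicate; inactives centre near -14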
BJeLR lethal = kills HRASV12-expressing BJeLR cells | BJeLR (HRASV12) viability, CellTiter-Glo ATP luminescence, 48 h; reference of the scale not given here | inhibition, % (concentration not given with the values) | 0.17% of 300,000 active;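 active = replicate mean above 50%; inconclusive = above 50% but judged a plate artefact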;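 note: 50 nL library stock added to about 25 µL; numbers are from one replicate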
RN4220 kill = S. aureus RN4220 growth inhibition. inhibition, % (concentration not given with the values). OD600, 16 h. 0.33% of 330,000 active;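 active = z-score of -3 or lower and OD600 up to 0.18 on both plates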;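 note: plate controls were untreated cells for no effect and reference antibiotic for full effect; stock transfer was 100 nL into about 80 µL; one replicate is shown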
Mtb hypoxia rep = inhibitors of hypoxia-regulated fluorescent reporter in Mycobacterium tuberculosis; M. tuberculosis hypoxia-regulated fluorescent reporter, fluorescence; fluorescence inhibition, % (test concentration not listed); 0.1% of 300,000 active; AID 1159583;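 active = 35 to 45% if threefold the growth effect, above 45% if 1.5-fold the growth effect; inactive = the rest, general growth blockers included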;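 note: wells of about 50 µL received 100 nL stock; 0% = vehicle wells and 100% = reference inhibitor wells; whole bacteria with a GFP reporter of the hypoxia response; strong numbers were not always called active; many hits fall short of the cut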
Bead autofluor = compound fluorescence in toxin protease inhibitor counterscreen | compound autofluorescence counterscreen, microsphere flow cytometry; hits give high values | fluorescence intensity (test concentration not listed) | 3.1% of 360,000 active | AID 624483;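 active = at least 3 SD above the mean of all compounds, about 16000 in these data; inconclusive = too few beads counted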;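 note: 100 nL of 1 mM stock went into each well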
Mtb hypoxia rep growth = also measured in Mtb hypoxia rep; calls as there; growth inhibition, %; measured here: M. tuberculosis growth (absorbance);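 0% = vehicle and 100% = reference antibiotic; read after six days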
The depositor's hits bear a star; u = inconclusive; x = no result given. Random draw from the library; overall some 4.1% were active at least once.

Under each structure – Mtb hypoxia rep | RN4220 kill | BJeLR lethal | PrP UTR inh | Sa ugtP lethal | Bead autofluor | Mtb hypoxia rep growth
1: N#Cc1cn(CCCOc2ccccc2)c2ccccc12
→ 4 | 6.9 | -2 | -2 | 1 | 3414 | 1
2: CC1CCCC(C)N1C(=O)COc1ccccc1F (configuration not stated)
→ 6 | 3.6 | 9 | -7 | 0 | 4725 | 2
3: Cc1ccc2nc3c(c(C(=O)OC4CCOC4=O)c2c1)CCCC3 (configuration not stated)
→ -6 | 15 | 1 | -7 | 8 | 3997 | -1
4: COc1ccc(OC)c(C(=O)c2coc3ccc(O)c(CN(C)C)c23)c1
→ 6 | 6.0 | -3 | -7 | 7 | 3315 | 2
5: Cc1nc(-c2ccc(C(=O)Nc3cccc(Br)c3)cc2)cs1
→ 7 | -0.2 | 15 | -46 | -13 | 2623 | -10
6: Cc1cc(Nc2cccc(Br)c2)c2ccccc2n1
→ 13 | -4.2 | -6 | -51 | -7 | u | 11
7: CCOC(=O)c1c(S(=O)(=O)Nc2ccc(F)cc2Cl)c(C)n(C)c1C
→ 7 | -0.7 | -2 | -32 | 2 | 5691 | 8
8: COc1cc(/C=C/C(=O)N(C)CC(=O)Nc2ccccc2SC)cc(OC)c1OC
→ 8 | 3.3 | x | -14 | 3 | 4112 | 9
9: O=C(OCC(=O)c1ccc[nH]1)c1ccc(Br)cc1
→ 7 | 8.9 | x | -9 | 11 | 3120 | -2
10: Cc1cc(C)nc(N2CCN(S(=O)(=O)c3ccc(F)cc3)CC2)n1
→ 15 | 6.4 | -7 | -9 | 6 | 3724 | 8
11: COc1ccc(S(=O)(=O)N(C)C)cc1NC(=O)COC(=O)c1nc2nccc(C)n2n1
→ 11 | 3.7 | 0 | -19 | 10 | 4068 | 10
12: COc1ccc(CCN2CC(C(=O)Nc3ccc4c(c3)OCO4)CC2=O)cc1OC (configuration not stated)
→ 10 | -0.7 | 3 | -19 | 0 | 4404 | -8
13: Cc1c(OCC(=O)NCc2ccccn2)ccc2c(-c3ccccc3)cc(=O)oc12
→ x | 7.5 | -7 | -2 | -8 | 5664 | x
14: Cc1cccc(C(C)C)c1NC(=O)Cc1ccc(S(=O)(=O)N2CCOCC2)s1
→ 1 | 0.1 | -1 | -28 | 10 | u | -1
15: O=C(Cn1nc(C(F)F)cc1C(F)F)NNC(=S)Nc1ccc(F)cc1
→ 10 | 3.7 | 0 | -24 | 5 | 8154 | 9
16: CC1(C)Cc2cccc(OCC(=O)NCCOc3ccccc3)c2O1
→ 3 | 3.6 | -1 | -54 | -2 | 4527 | 5
17: Cc1cc(N/N=C/c2cccc([N+](=O)[O-])c2)nc(-n2nc(C)cc2C)n1
→ x | x | -2 | -23 | x | 3629 | x
18: Cc1cccc(C)c1NC(=O)CNC(=O)CNC(=O)c1ccc2c(c1)OCO2
→ -8 | -4.8 | -6 | -9 | -1 | 5091 | -1
19: CCOC(=O)c1c(S(=O)(=O)N2CCCC(C(=O)Nc3ccc(C)cn3)C2)c(C)n(C)c1C (configuration not stated)
→ -8 | 1.5 | 4 | -6 | 4 | 5383 | -11
20: COc1cc(C(=O)NCc2cccc(Cl)c2)ccc1OCC(=O)N1CCOCC1
→ 2 | 0.9 | 4 | -26 | 1 | u | -4
21: Cc1ccc(NS(=O)(=O)c2ccc3c(c2)CC(=O)N3)c(C)c1
→ -1 | 9.1 | -2 | -16 | 4 | 5263 | 0
22: CN(C)CCNC(C(=O)Nc1cccc(S(=O)(=O)N2CCOCC2)c1)c1ccccc1 (configuration not stated)
→ 11 | 4.5 | x | -10 | 3 | 3622 | 9
23: CCN(CC)CCNC(=O)Cn1nc(Cc2ccncc2)c2ccccc2c1=O
→ 11 | 3.4 | -5 | -13 | 8 | 3687 | 3
24: O=C(Nc1nccs1)C1CC(=O)N(CCc2ccccc2)C1 (configuration not stated)
→ -3 | 0.2 | x | -23 | 2 | 5626 | -4
25: CCOc1cc(C=NNC(=O)OC)ccc1OC(=O)c1ccco1
→ 0 | 5.7 | x | x | 4 | x | 1
26: CC(=O)OCC(=O)C12OC(C)(C)OC1CC1C3CC=C4CC(O)CCC4(C)C3CCC12C (configuration not stated)
→ 11 | 8.3 | x | -10 | 8 | 3826 | 11
27: COC(=O)c1ccc(S(=O)(=O)c2ccc([N+](=O)[O-])cc2)cc1
→ x | x | -1 | -16 | x | 3804 | x
28: O=C(CCN1CCOCC1)N/N=C/c1cc(Br)cc(Br)c1O
→ x | x | 7 | -10 | x | 4087 | x
29: Cc1cc(=O)oc2c(C)c(OCC(=O)NC3CCN(Cc4ccccc4)CC3)ccc12
→ 3 | -5.0 | 3 | -3 | -1 | 5871 | 5
30: O=C(O)c1cc2ncc(CCO)cn2n1
→ 3 | 3.0 | -1 | -18 | 6 | 4664 | 4

3 compounds from above, arranged by molar mass, high to low:
Under each structure – Mtb hypoxia rep | RN4220 kill | BJeLR lethal | PrP UTR inh | Sa ugtP lethal | Bead autofluor | Mtb hypoxia rep growth
26: CC(=O)OCC(=O)C12OC(C)(C)OC1CC1C3CC=C4CC(O)CCC4(C)C3CCC12C (configuration not stated)
→ 11 | 8.3 | x | -10 | 8 | 3826 | 11
20: COc1cc(C(=O)NCc2cccc(Cl)c2)ccc1OCC(=O)N1CCOCC1
→ 2 | 0.9 | 4 | -26 | 1 | u | -4
24: O=C(Nc1nccs1)C1CC(=O)N(CCc2ccccc2)C1 (configuration not stated)
→ -3 | 0.2 | x | -23 | 2 | 5626 | -4

Further compounds
Under each structure – Mtb hypoxia rep | RN4220 kill | BJeLR lethal | PrP UTR inh | Sa ugtP lethal | Bead autofluor | Mtb hypoxia rep growth
31: O=C(CN1CCN(S(=O)(=O)c2ccc(Cl)cc2)CC1)NC(=O)NC1CCCCC1
→ 13 | 2.3 | 10 | -13 | 0 | 3528 | 5
32: Cc1ccc(C(=O)NC2CCN(CC(=O)Nc3c(C)cc(C)cc3C)CC2)cc1
→ 5 | 1.6 | 5 | -15 | 13 | 3720 | 1
33: CC(C)CC(=O)Nc1ccc(C(=O)COC(=O)Cc2n[nH]c(=O)c3ccccc23)cc1
→ 5 | 1.7 | x | -27 | 13 | 3182 | -3
34: O=C(COC(=O)C1CC1)Nc1ccc(Cl)cc1Cl
→ -3 | 1.0 | x | 2 | -4 | 8562 | 5
35: COc1ccccc1Oc1nnnn1-c1ccc(C(N)=O)cc1
→ -5 | 0.4 | 2 | x | -5 | 7996 | 5
36: Cc1cc(C)nc(NC(=O)COc2cc(Cl)cc(Cl)c2)n1
→ x | -2.5 | 0 | 1 | 0 | 5117 | x
37: CCOC(=O)c1c(NC(=O)COC(=O)c2nc(Cl)ccc2Cl)sc(C(=O)NC)c1C
→ 1 | 2.7 | -10 | -13 | 8 | x | 7
38: COc1ccc(OC)c(NC(=O)COC(=O)CCc2ccc(S(=O)(=O)N3CCOCC3)cc2)c1
→ 6 | 1.5 | x | -11 | 5 | 3517 | 9
39: O=C(COc1ccccc1F)Nc1ccc2c(c1)OCCO2
→ 4 | 2.0 | 12 | -22 | 2 | 3799 | 5
40: COc1ccc(/C=N\NC(=O)c2cccc(Br)c2)c(OC)c1
→ x | x | -2 | -28 | x | 3489 | x
41: CCCOc1ccc(/C=N/NC(=O)C2CC2)c(OCCC)c1
→ x | x | -9 | -37 | x | 3511 | x
42: O=C(N/N=C/c1cccc(Oc2ccccc2)c1)c1cc[n+]([O-])cc1
→ x | x | -7 | -17 | x | 2512 | x
43: COc1ccc(CC(C)N2CCN(Cc3ccccc3)CC2)c(OC)c1 (configuration not stated)
→ 0 | -2.8 | 4 | -16 | 4 | 18004* | 4
44: CN(Cc1c(F)cccc1Cl)S(=O)(=O)c1cccs1
→ 0 | 7.2 | -4 | -14 | 7 | 3862 | 11
45: COc1cc(/C=N\Nc2ccc([N+](=O)[O-])cc2)ccc1OCC(=O)Nc1ccc(C)c(C)c1
→ x | x | 0 | -11 | x | 3182 | x
46: O=C(Nc1ccccc1)C1CC=CCC1C(=O)OCC1CCCO1 (configuration not stated)
→ -5 | 0.6 | -5 | -21 | 1 | u | 1
47: O=C(c1cccc(Oc2ccccc2)c1)N1CCOCC1
→ 0 | 1.5 | 4 | -23 | 2 | 6402 | 5
48: CCc1cc(=O)oc2cc(OCC(=O)N3CC[C@@]4(O)CCCC[C@H]4C3)ccc12
→ x | 5.0 | -8 | -7 | 8 | 4273 | x
49: O=C(C1=C[C@@H](c2coc3ccccc3c2=O)C[C@@H](OCc2ccc(CO)cc2)O1)N1CCOCC1
→ x | x | 4 | -14 | x | 3115 | x
50: O=C(N/N=C/C=C/c1ccccc1[N+](=O)[O-])c1cc(-c2ccccc2)n[nH]1
→ x | x | -3 | -11 | x | 2404 | x
51: CN(Cc1ccccc1)C(=O)c1nc2ccccn2c1CN1CCc2sccc2C1
→ -6 | -0.6 | 9 | -26 | -2 | 4746 | -1
52: COc1ccc(-c2csc(NC(=S)NC(=O)c3ccco3)n2)cc1
→ 3 | 0.6 | 4 | -39 | -6 | 2593 | 6
53: CCOC(=O)Cc1nnc(NC(=O)CCc2ccccc2)s1
→ -5 | 0.3 | 2 | -18 | -1 | 3772 | 6
54: CC(=O)Nc1sc(C)c(C)c1C(=O)OCC(=O)Nc1ccccc1
→ 7 | 4.2 | x | -58 | -6 | 4180 | -2
55: COc1ccc(-c2ccnc3nc(Sc4ncc(C(F)(F)F)cc4Cl)nn23)cc1
→ 6 | 4.2 | -3 | 1 | -11 | 20277* | 15
56: Cc1ccc(S(=O)(=O)N2CCN(C(=O)C3CCCO3)CC2)cc1C (configuration not stated)
→ 11 | 2.0 | -17 | 0 | -4 | 5161 | 8
57: CCOC(=O)/C=C(\C)N1N=C(c2ccccc2)CC1c1ccccc1 (configuration not stated)
→ 16 | 5.1 | 1 | -48 | 1 | 4517 | 12
58: CCOc1ncccc1C(=O)OCC(=O)Nc1cccc(C(C)=O)c1
→ 13 | 5.0 | -9 | x | -4 | 9686 | 2
59: CCOC(=O)C1CCCN(C(=O)c2ccc(S(=O)(=O)Nc3ccccc3OC)cc2)C1 (configuration not stated)
→ 4 | 5.1 | x | -9 | 6 | 8610 | 2
60: CCn1nnnc1NCc1ccc(OCc2c(F)cccc2Cl)c(OC)c1
→ 0 | 4.8 | -3 | -17 | 8 | 6115 | 5
61: CC(=O)Nc1ccc(S(=O)(=O)N2CCN(c3nc4ccccc4n3CC(C)C)CC2)cc1
→ -4 | 1.2 | 0 | -32 | 10 | 3522 | 6
62: Cc1cc(C(=O)Nc2cc(S(C)(=O)=O)ccc2Cl)c(C)o1
→ 6 | 4.2 | x | -40 | -3 | 3648 | 8
63: O=C(COC(=O)c1nc(Cl)ccc1Cl)NCc1ccc(Cl)cc1
→ 1 | -1.9 | x | -29 | -1 | 8655 | 9
64: O=[N+]([O-])c1cccnc1Sc1ccc(Cl)cc1
→ 14 | -1.6 | 3 | -60 | 1 | 3610 | 8
65: Cc1nnsc1C(=O)Nc1ccc(Cl)cc1Cl
→ -1 | 0.0 | -14 | -4 | -2 | 4996 | 4
66: O=C(O)COc1ccccc1/C=C1\SC(=S)N(/N=C/c2ccccc2O)C1=O
→ x | x | -10 | -5 | x | 9376 | x
67: COc1cc(NC(=O)Cn2c(=O)n(-c3cccc(C)c3)c(=O)c3c(C)c(C)sc32)cc(OC)c1
→ 0 | 6.3 | 9 | -15 | -6 | 6959 | 0
68: CCCC(c1nnnn1C(C)(C)C)N1CCN(Cc2ccccc2)CC1 (configuration not stated)
→ 3 | -1.1 | 3 | -21 | 1 | 4646 | 14
69: Fc1ccccc1NC(=S)NC1CCCC1
→ 2 | 1.8 | 7 | -24 | 12 | 3851 | -5
70: O=C(CSc1nnnn1-c1ccc(O)cc1)c1cc2ccccc2o1
→ 8 | 15 | -8 | -16 | -5 | 4171 | -2
71: CCCCN(C(=O)CCC(=O)Nc1cc(C)on1)C(C(=O)NC1CCCC1)c1ccc(OCC)cc1 (configuration not stated)
→ -2 | 2.9 | -4 | -20 | 4 | 6015 | 3
72: CC(C)NC(=O)NC(=O)COC(=O)CCOc1ccccc1
→ -1 | 5.8 | -3 | -14 | -14 | 24104* | 11
73: O=P(Cc1cc(Br)cc(Br)c1OCCO)(c1ccccc1)c1ccccc1
→ x | x | -18 | -43 | x | u | x
74: CC(C)CC1CCCCC1OC(=O)C[N+]1(C)CCCCC1 (configuration not stated)
→ 1 | 4.1 | -2 | -47 | 7 | 4968 | 7
75: C/C(=N/NC(=O)c1ccc(C)nc1)c1ccc2c(c1)CCCC2
→ x | x | 4 | -36 | x | 1959 | x
76: Cc1nonc1OCCNCCNc1ccccc1[N+](=O)[O-]
→ 4 | 5.0 | 6 | -28 | 6 | 2167 | 11
